High-throughput results deposited in PubChem BioAssay by ICCB-Longwood Screening Facility, Harvard Medical School.
Anaer choline gr: choline-fed anaerobic bacterial growth inhibition; calls only; AID 1963822; Gram-negative bacterium anaerobic choline minimal medium, absorbance growth; stronger effect = lower value; many inactives read as strong as hits in the columns shown; actives 0.2% (n = 55,000);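 active = growth z-score on choline under -2 at 7 or 20 h with little or no fall on glycerol, limits in tiers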;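 note: stock transfer was 300 nL into about 50 µL; the organism is E. coli; final concentration not given here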
Anaer choline gr early: also measured in Anaer choline gr; calls as there; z-score; measured here: choline growth z-score, timepoint 1;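 score of optical density at 7 h as mean of two plates; lower means less growth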
An asterisk follows results filed as active; i = inactive. The list is partial (hit frequency here may not be typical).

A first look, three compounds:
SMILES	Anaer choline gr	Anaer choline gr early
CCOC(=O)c1cccc(NC(=O)C2CCCN(c3ncnc4onc(C)c34)C2)c1 (stereo not given)	i	-0.82
COc1cnc(NS(=O)(=O)c2ccc(N)cc2)nc1	i	0.65
Cc1ccc(N2CC(c3nc(-c4ccc(N5CCCC5)cc4)no3)CC2=O)cc1C (stereo not given)	i	0.93

Main list, previewed entries included:
SMILES	Anaer choline gr	Anaer choline gr early
CCOC(=O)c1cccc(NC(=O)C2CCCN(c3ncnc4onc(C)c34)C2)c1 (stereo not given)	i	-0.82
COc1cnc(NS(=O)(=O)c2ccc(N)cc2)nc1	i	0.65
Cc1ccc(N2CC(c3nc(-c4ccc(N5CCCC5)cc4)no3)CC2=O)cc1C (stereo not given)	i	0.93
O=S(=O)(Cc1ccc(Cl)cc1)N1CCc2nc(-c3ccc(Cl)cc3)ncc2C1	i	1.2
Cc1cccc(-c2nc(Cn3c(=O)c4cccnc4n(-c4ccccc4)c3=O)c(C)o2)c1	i	0.26
O=c1ccc2cc(S(=O)(=O)N3CCN(C(c4ccccc4)c4ccccc4)CC3)ccc2[nH]1	i	-1
O=C(NCCN1CCCCC1)C1CCN(c2cnc(N3CCCC3)nc2)CC1	i	1.4
O=S(=O)(c1ccccc1)N1CCN(c2ncnc3c2nnn3-c2cccc(F)c2)CC1	i	-1.6
Cc1ccc(O)c(C2=Nc3ccccc3N=C(c3ccc(Cl)cc3)C2)c1	i	0.33
Fc1ccc(CN2CCC3(CC2)N=C(C2CC2)NO3)cc1	i	0.6
COc1cccc(C(=O)N2CCC(N3CCN(Cc4cccc(F)c4)C(=O)C3=O)CC2)c1	i	-0.41
COc1ccccc1NC(=O)n1ncc2ccccc21	i	-0.62
O=C(c1ccccc1)N1CCN(Cc2cc(=O)n3nc(-c4ccccc4Cl)sc3n2)CC1	i	0.56
O=C(NCc1csc(-c2ccccc2)n1)[C@H]1CSCN1C(=O)CCc1ccccc1	i	-1.5
O=c1[nH]c(SCc2ccccc2Cl)nc2c1CN(Cc1ccccc1)CC2	i	0.18
O=C(Cn1c(=O)n2nc(-c3ccccc3)nc2c2ccccc21)c1ccc2c(c1)OCO2	i	-0.56
CCC(C)NC(=O)CCNC(=O)N1CCSc2nc(C)cc(C)c21 (stereo not given)	i	-0.54
COc1ccc(-c2nn3c(Nc4cccc(C)c4)cc(C)nc3c2C)cc1OC	i	0.53
Cc1cc(C)cc(-n2ncc3c(N(C)C)ncnc32)c1	i	-0.12
O=C(CN1CCN(Cc2ccccc2Cl)S1(=O)=O)Nc1ccc(Br)cc1	i	0.21
O=S(=O)(Nc1cccc(F)c1)c1ccccc1-c1nc(-c2ccccc2)no1	i	0.14
Cc1cn(C)c(CC(=O)N2CCCC2)c1C(=O)O	i	0.82
CC(=O)Nc1cccc(-c2nc(-c3ccc4c(c3)oc(=O)n4C)no2)c1C	i	-1.9
CCCSc1nn(C)c2nc3c(c(=O)n12)C(C)(C)Cc1ccccc1-3	i	0.34
COc1ccc(NC(=O)C2Nc3cc(F)ccc3S(=O)(=O)N2)cc1 (stereo not given)	i	-0.31
Cn1c(=O)oc2cc(S(=O)(=O)N3CCC(c4ccncc4)CC3)ccc21	i	0.29
COc1ccc(N2CCN(c3c4c(nc5ncnn35)CCC4)CC2)cc1	i	-0.63
COc1ccc(OC)c(CNC(=O)c2ccc3c(c2)nnn3Cc2ccccc2)c1	i	0.66
CC1CN(CC(=O)N2CCCCC2)c2ccccc2S1 (stereo not given)	i	1.3
O=C(NCc1ccc(F)cc1Cl)C1CCN(c2ncccc2-c2nc(-c3ccccc3)no2)CC1	i	-1.2
O=C(C1CC1)N1CCc2cc3ccccc3nc21	i	-0.74
CCOc1ccc(NC(=O)C2CCCN2S(=O)(=O)c2ccc(OCC)cc2)cc1 (stereo not given)	i	0.88
COc1ccc(CCNC(=O)CN2C(=O)CCCc3ccccc32)cc1OC	i	-0.16
CCCCC#Cc1nc(NC)c2ncn([C@@H]3O[C@H](CO)C(O)[C@@H]3O)c2n1 (stereo not given in full)	i	0.9
c1ccc(C2=Nn3cnnc3SC2)cc1	i	-1.6
Cc1ccc(Cc2nnc(-c3cc(N)ccc3F)o2)cc1	i	0.57
Cc1cc(N)n(-c2ccccc2Cl)n1	i	-1.2
O=C(CCc1nnc2c3cc(-c4ccc(F)cc4)nn3ccn12)N1CCCC1	i	0.41
O=S(=O)(c1cc(-c2cc(C(F)(F)F)on2)cs1)N1CCN(c2cccc(Cl)c2)CC1	i	2.1
COc1ccc(NC(=O)c2nnc(C3CCN(S(=O)(=O)c4ccccc4C)CC3)s2)cc1	i	0.1
Cc1ccc(NC(=O)N2CCC(c3nc(-c4ccccc4)no3)CC2)cc1C	i	0.49
Cc1ccccc1NC(=O)Cn1cc(C(=O)c2ccccc2)c(=O)c2ccccc21	i	-2.4
CC1(C)Cc2cccc(OCC(N)=O)c2O1	i	-0.92
Nc1ncc(S(=O)(=O)N2CCCCC2)cn1	i	-0.89
Cc1ccc(C(=O)N2CCN(c3ncnc4c3CCC4)CC2)s1	i	0.28
Cc1nn(-c2ccccc2)c(C)c1CCc1nn2c(-c3ccc(F)cc3)nnc2s1	i	0.49
CCn1c(=O)c(=O)n(CC(=O)NCc2c(C)nn(C)c2C)c2cccnc21	i	0.65
COc1ccccc1-c1noc(-c2ccncc2)n1	i	-0.31
COc1ccc2cnn(-c3ccccc3)c(=O)c2c1OC	i	-0.51
c1csc(-c2[nH]ncc2CN2CCCCCC2c2cccs2)c1 (stereo not given)	i	-1.9
CCOC(=O)c1ccccc1NC(=O)N1CCc2c(sc3c2CCCC3)C1c1ccccc1 (stereo not given)	i	-0.07
CCc1ccc2ncc(C(=O)c3ccccc3)c(N3CCOCC3)c2c1	i	-0.31
CC1=Nc2ccccc2N=C(NC(=O)CSc2nc3ccccc3s2)C1c1ccccc1 (stereo not given)	i	1.6
COc1ccc(-c2cc(=O)c3c(O)c(OC)c(OC)cc3o2)cc1O	i	1.4
CCOC(=O)c1ccccc1NC(=O)CSc1ncc(CO)n1Cc1ccccc1	i	0.49
CCc1nnc2n1N=C(c1ccc(F)cc1)CS2	i	-1
Clc1cccc(OCc2nc3c4ccccc4ncn3n2)c1	i	-0.32
NCCOB(c1ccccc1)c1ccccc1	i	-2.8
Clc1ccccc1-n1cc(-c2ccccc2)c2c(NC3CC3)ncnc21	i	1.1
O=C1CC(NCC2CCCO2)C(=O)N1c1ccccc1 (stereo not given)	i	0.06

Entries of single compounds as entered above:
Cc1cc(N)n(-c2ccccc2Cl)n1 reads Anaer choline gr = i; Anaer choline gr early = -1.2
O=C(c1ccccc1)N1CCN(Cc2cc(=O)n3nc(-c4ccccc4Cl)sc3n2)CC1 reads Anaer choline gr = i; Anaer choline gr early = 0.56

(cont.)
SMILES	Anaer choline gr	Anaer choline gr early
Cc1ccc(NC(=O)NC(c2ccccc2)c2nnc(-c3ccccc3)o2)cc1C (stereo not given)	i	0.55
CC1CCCN(CC2CCN(S(=O)(=O)Cc3ccc(Cl)cc3)CC2)C1 (stereo not given)	i	-1.5
CCCNS(=O)(=O)c1ccc2c(c1)N(Cc1noc(C)n1)C(=O)CO2	i	-0.22
O=C(Nc1ccc(-c2cn3c(C(=O)N4CCCC4)csc3n2)cc1)c1ccccc1F	i	-0.72
CCSc1nccc2c1ccn2CC(=O)NC(C)c1ccc(C)cc1 (stereo not given)	i	-0.23
O=C(Nc1ccc(F)cc1)N1CCC(n2cnc3c(Cl)cccc3c2=O)CC1	i	1.4
Cn1cnnc1Sc1c([N+](=O)[O-])ncn1C	i	-2
O=C1c2[nH]nc(-c3ccc(F)cc3)c2C(c2ccc(Cl)cc2)N1c1ccccc1 (stereo not given)	i	-0.28
Cc1ccc(-c2[nH]ncc2CN2CCCC2c2c(C)noc2C)cc1 (stereo not given)	i	-0.35
COc1ccc(OC)c(CNc2c3c(nc4ncnn24)CCC3)c1	i	-0.6
CC(C)NC(=O)c1nsc(C(=O)N2CCN(C(C)C)CC2)c1N	i	-2.9
Cc1cccc(-c2ccc(Nc3ccc(C(=O)NC4CCCCC4)cc3)nn2)c1	i	1.2
CC1CN(C2CCCCC2)c2nc3c(c(=O)n(CCN4CCOCC4)c(=O)n3C)n2C1 (stereo not given)	i	0.9
CCc1cc(-c2csc(S(=O)(=O)NCCCc3ccccc3)c2)on1	i	1.5
COC(=O)c1c(NC(=O)c2ccc3c(c2)OCCO3)sc2c1CCC2	i	0.21
CCOc1ccccc1NC(=O)N1CCN(S(=O)(=O)c2ccc3c(ccn3C)c2)CC1	i	-0.37
COc1ccccc1OCC(=O)NCC(c1ccc(Br)cc1)c1c[nH]c2ccccc12 (stereo not given)	i	0.01
Cc1cc(C2CCCN2Cc2ccccc2O)on1 (stereo not given)	i	-1.6
COCCNC(=O)C1Cc2ccccc2N1C(C)=O (stereo not given)	i	0.4
O=C(Nc1cccc2nsnc12)c1cccc(-n2cnnc2)n1	i	0.57
O=S(=O)(c1ccc(F)cc1)c1nc(-c2ccc(Cl)cc2)oc1N1CCOCC1	i	0.76
CN1C(=O)C(c2c(-c3ccc(Br)cc3)[nH]c3c2c(=O)n(C)c(=O)n3C)c2ccccc21 (stereo not given)	i	1.3
COc1ccc(-n2nnnc2CNC(=O)C2CC(=O)N(c3ccc(C)cc3)C2)cc1 (stereo not given)	i	0.57
O=c1[nH]cccc1-c1nc(-c2cccc(F)c2)no1	i	-1.9
CCC(C)NC(=O)CCc1nc(-c2nn(-c3ccccc3)c(=O)n(C)c2=O)no1 (stereo not given)	i	0.33
Cc1csc(-c2cc(S(=O)(=O)Nc3ccc(Cl)cc3)cn2CC(=O)N2CCCC2)n1	i	0.7
CCc1onc(C)c1C1CCCN1Cc1ccc(N(CC)CC)cc1 (stereo not given)	i	-0.87
O=C(CSc1nc(-c2ccccc2)no1)Nc1cccc(Cl)c1	i	-1.1
c1ccc(-c2[nH]ncc2-c2ccnc3ccccc23)nc1	i	-0.92
O=C(Cn1cnc2ccccc2c1=O)Nc1ccccc1N1CCCCC1	i	-0.5
CC1CCCCN1C(=O)c1cc(CN2CCOCC2)on1 (stereo not given)	i	-1.9
COc1cccc(-c2nn(Cc3ccccc3C)c(=O)c3noc(C)c23)c1	i	2
CCOC(=O)c1nc2c3nsnc3ccc2n(C)c1=O	i	1.2
COC(=O)c1sccc1NC(=O)Cn1ccn2nc(-c3ccc(OC)cc3)cc2c1=O	i	1.6
COc1cccc(CNC(=O)C2(C)CCCN(C(=O)NCC3CCCO3)C2)c1 (stereo not given)	i	-0.52
Cc1ccc(NC(=O)N2CCC(C)(C(=O)NCc3ccc4c(c3)OCO4)CC2)c(C)c1	i	-1.7
O=S(=O)(Cc1nc(-c2ccc3c(c2)OCO3)no1)c1ccc(Br)cc1	i	0.44
COc1ccc(C2CC(=O)N(c3ccc4c(c3)OCCO4)C(=O)C2)cc1OC	i	-0.19
Cc1cccc(C(=O)Nc2c(-n3cnnc3)nn(C)c2C)c1	i	-0.73
CCc1ccc(-n2[nH]c3c(c2=O)Cc2cc(Cl)ccc2O3)cc1	i	0.77
O=C(c1ccc2ccnc(N3CCN(c4ccccc4F)CC3)c2c1)N1CCOCC1	i	0.13
CC(C)CCn1c(=O)c2ccccc2n2c(=O)n(CC(=O)Nc3ccc(F)cc3F)nc12	i	0.83
O=C(Nc1cnc(N2CCN(c3ccccc3)CC2)c(C(=O)O)c1)c1ccccc1F	i	-1
O=C(NCc1ccccc1)c1ccc(-n2nnc3cccnc32)cc1	i	0.57
Cc1c(C)n(-c2ccc(F)cc2)c2ncnc(Cl)c12	i	-0.6
COCCNC(=O)C1CCCN(S(=O)(=O)c2ccc3c(c2)CCCN3C(C)=O)C1 (stereo not given)	i	0.88
CCN1CCN(C(=O)C2(c3ccc(F)cc3)CC2)CC1	i	0.37
CCC(C)NC(=O)C1CCN(c2nn3c(=O)cc(C)nc3s2)CC1 (stereo not given)	i	-0.57
Cc1nn(-c2ccc3nncn3n2)c(C)c1CCC(=O)NC1CCCCC1	i	0.33
COc1cccc(C2=CC(c3ccccc3F)n3ncc(C(=O)Nc4cc(Cl)ccc4C)c3N2)c1 (stereo not given)	i	0.86
CN(C)CC(=O)NC(C)(C)c1nc2c(c(C(N)=O)n1)OCO2	i	0.31
Cc1ccc(C(=O)NCCc2c[nH]c3ccc(Cl)cc23)cc1-n1nnc2cccnc21	i	0.87
CCc1nnc(NC(=O)c2cc(=O)c3cc(Cl)c(C)cc3o2)s1	i	-1.3
CCCCN(CCCC)CCC(O)c1cc2c(Cl)cc(Cl)cc2c2cc(C(F)(F)F)ccc12 (stereo not given)	i	0.7
O=c1c(=S)[nH]ccn1-c1cccc(F)c1	i	-1.2
CC(C)(C)C1CCc2c(sc3nc(CCC(=O)N4CCN(c5ccccc5F)CC4)[nH]c(=O)c23)C1 (stereo not given)	i	-0.34
CCOC(=O)Cn1c(=O)oc2cc(S(=O)(=O)N3CCC(Cc4ccccc4)CC3)ccc21	i	-0.63
c1ccc2sc(C3CCCN3)nc2c1 (stereo not given)	i	-0.1
CCOC(=O)C1CCCN(C(=O)Cn2c(=O)c3ccccc3n3c(=S)sc(-c4cccc(Cl)c4)c23)C1 (stereo not given)	i	0.23
COc1ccc(OC)c(S(=O)(=O)Nc2cccc(N3CCCS3(=O)=O)c2)c1	i	-0.52
